KCNQ2 enhance – KCNQ2 (rat) channel potentiation | CHO-K1 KCNQ2, FluxOR thallium flux fluorescence; stronger effect = higher value | B-score at 10 µM | 310,000 tested, 0.54% active | AID 2239;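 active = fluorescence ratio B-score at least 3 SD of library B-scores, with initial fluorescence B-score within 3 SD, cut at about 5.3 in these data; same plate scores as AID 2156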;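 note: B-score of peak minus minimum over baseline fluorescence ratio after K+ and Tl+ stimulus; positive B-score means potentiation of KCNQ2 with more thallium influx and brighter signal; only the inactives scoring about 0 or higher are listed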
Target sequence (O88943 whole entry, looked up): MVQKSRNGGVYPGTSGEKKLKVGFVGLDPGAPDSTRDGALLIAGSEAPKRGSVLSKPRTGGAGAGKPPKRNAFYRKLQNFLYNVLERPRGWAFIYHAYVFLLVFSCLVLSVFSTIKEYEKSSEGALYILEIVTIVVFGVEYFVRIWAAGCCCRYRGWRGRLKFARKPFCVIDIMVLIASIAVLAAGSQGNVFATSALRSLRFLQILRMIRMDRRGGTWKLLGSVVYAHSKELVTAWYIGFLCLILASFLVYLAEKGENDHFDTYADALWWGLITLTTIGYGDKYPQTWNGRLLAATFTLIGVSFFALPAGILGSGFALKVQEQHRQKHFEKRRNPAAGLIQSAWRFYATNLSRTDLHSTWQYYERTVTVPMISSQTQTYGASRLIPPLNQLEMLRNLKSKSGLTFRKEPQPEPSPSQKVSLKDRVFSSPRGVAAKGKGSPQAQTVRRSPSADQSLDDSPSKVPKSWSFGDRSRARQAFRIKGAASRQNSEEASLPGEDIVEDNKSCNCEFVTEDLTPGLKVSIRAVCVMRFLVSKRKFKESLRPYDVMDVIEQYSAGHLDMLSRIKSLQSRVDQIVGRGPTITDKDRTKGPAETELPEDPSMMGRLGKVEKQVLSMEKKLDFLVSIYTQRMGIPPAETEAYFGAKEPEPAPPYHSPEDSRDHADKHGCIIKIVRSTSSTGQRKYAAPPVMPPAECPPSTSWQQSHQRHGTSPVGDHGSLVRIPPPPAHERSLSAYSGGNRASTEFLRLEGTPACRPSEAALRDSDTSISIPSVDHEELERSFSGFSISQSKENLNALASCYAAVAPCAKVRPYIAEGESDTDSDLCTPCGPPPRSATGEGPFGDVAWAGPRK
KCNQ2 enhance baseline – second read-out of KCNQ2 enhance, no call of its own (marks repeat the call); B-score; compound at 10 µM; measured here: initial fluorescence intensity artifact check;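 brightness before thallium and not channel activity; 0 = typical well and far values either way flag optical interference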
* marks the source's active call; other numbers are inactive results.

KCNQ2 enhance,KCNQ2 enhance baseline,molecule
0.02,6.3,COc1cc2c(cc1OC)C(C)=NC1(CCCCC1)C2
0.13,-0.84,CN(CC(=O)Nc1ccc(F)cc1)C(=O)COc1ccc([N+](=O)[O-])cc1Cl
0.79,0.74,CC(C)(C)NS(=O)(=O)c1ccc2nc(NC(=O)Cc3cccs3)sc2c1
0.36,0.17,Cc1nnc(-c2ccccc2)c[n+]1[O-]
1.95,-0.01,Cc1cccc(N=C(N2CCOCC2)P(=O)(N2CCOCC2)N2CCOCC2)c1
0.73,-1.79,COc1cc(-c2nnc(-c3ccc(S(=O)(=O)c4ccccc4)cc3)o2)cc(OC)c1OC
0.42,-0.24,CCN1CCN(S(=O)(=O)c2ccc(OC)c3ccccc23)CC1
0.47,1.61,Cc1ccc(CS(=O)(=O)c2ccccc2-c2nnc(-c3ccc(Cl)cc3)o2)cc1
0.64,-0.25,Cc1cc(C)n2nc(C(=O)Nc3ccc(S(=O)(=O)N4CCCCC4)cc3)nc2n1
0.13,-0.19,O=C(c1ccc(S(=O)(=O)Nc2ccccc2Cl)cc1)N1CCOCC1
0.53,0.13,CC(C)(C)c1csc(NC(=O)Nc2ccccc2)n1
0.03,-0.59,C/C(CC(=O)Nc1ccc(Cl)cc1Cl)=N\NC(=O)C(=O)NCCO
0.95,-0.03,O=C1NC2=C(C(=O)CCC2)C(c2ccc(OC(F)F)cc2)N1 (configuration not stated)
0.1,2.29,O=C(Cn1nnc(-c2cccc(C(F)(F)F)c2)n1)NC1CCCC1
0.58,-0.14,CCOC(=O)N1CCN(C(=O)CSc2ccc3nnc(CCNC(=O)c4ccccc4)n3n2)CC1

Of the compounds above, 2 have a tert-butyl group.
KCNQ2 enhance,KCNQ2 enhance baseline,molecule
0.79,0.74,CC(C)(C)NS(=O)(=O)c1ccc2nc(NC(=O)Cc3cccs3)sc2c1
0.53,0.13,CC(C)(C)c1csc(NC(=O)Nc2ccccc2)n1

(more compounds)
KCNQ2 enhance,KCNQ2 enhance baseline,molecule
1.47,-0.13,Cc1nc2ccccc2n1CC(O)Cn1c2ccccc2c2ccccc21 (configuration not stated)
0.44,2.27,CCCCC(=O)NC(=S)NNC(=O)c1ccc(Cl)cc1Cl
4.93,1.03,COc1ccc(C(=O)N2CCC(C(=O)Nc3ccc4c(c3)OCCO4)CC2)cc1
1.61,-0.02,CCOc1cccc2cc(-c3nnc(NCc4ccco4)s3)c(=O)oc12
0.37,-0.32,CCCC[n+]1ccn(-c2nc3ccccc3nc2[N-]S(=O)(=O)c2ccccc2)c1
0.75,-1.24,O=C(Nc1cccc(NC(=O)C2CC2)n1)C1CC1
0.15,2.58,O=C(O)c1cccc(Cn2c(Cl)c(/C=N/NC(=O)c3ccco3)sc2=O)c1
0.03,-0.55,CCOc1ccc(S(=O)(=O)NC(C)C)cc1C(N)=O
0.56,-0.8,Cc1ccc(Nc2nc(C)nc3c2oc2ccccc23)cc1
0.02,0.57,Cc1ccc(OCC(=O)N/N=C\c2cn(Cc3ccccc3)c3ccccc23)cc1C
0.63,0.17,CCOC(=O)N1CCN(c2cc(C)c(C(C)=O)cc2F)CC1
0.01,0.03,Cc1cccc(N(CC(=O)N2CCCCCC2)S(C)(=O)=O)c1C
1.32,0.52,CC(C)(C)Sc1ccc(N)nc1
2.64,-1.93,CCOc1ccc(S(=O)(=O)Nc2ccc(C(=O)NCC3(N4CCCCC4)CCCCC3)cc2)cc1
1.94,-0.08,O=C1/C(=C/Nc2ccc3c(c2)OCO3)CCc2ccccc21

Other entries follow:
KCNQ2 enhance,KCNQ2 enhance baseline,molecule
0.03,-0.23,O=C1CC(Cc2ccc(Br)cc2)C(=O)N1c1ccccc1 (configuration not stated)
1.45,0.15,COc1cc2c(C(=O)NCCCN3CCN(c4cccc(Cl)c4)CC3)cn(C)c(=O)c2cc1OC
2.53,-2.48,COc1ccc(S(=O)(=O)/N=C2/NC(=O)/C(=C/c3ccco3)S2)cc1
1.9,0.04,Cc1ccccc1NC(=O)c1ccc(Cl)c(NC(=O)c2cccnc2)c1
0.58,-0.77,Cc1ccccc1N(C(=O)c1ccco1)C(C(=O)NC1CCCC1)c1cccnc1 (configuration not stated)
0.01,1.83,O=C(CN(C(=O)CCC(=O)Nc1ccccn1)c1ccc(F)cc1)NCCc1ccccc1
0.11,-0.03,Cc1ccc(C)c(NC(=S)N(CCN(C)C)C(C)c2ccccn2)c1 (configuration not stated)
1.17,-2.61,COc1cccc(NC(=O)CSc2nnc(CNC(=O)c3ccccc3)n2C)c1
0.86,-0.49,O=C(CCN1C(=O)/C(=C/c2cccs2)SC1=S)Nc1cccc(C(=O)O)c1
0.21,-0.59,O=C(OCCN1CCCC1=O)c1cc(F)c(F)c(F)c1F
0.5,0.29,O=S(=O)(Cc1ccccc1Cl)c1ncn[nH]1
0.23,-0.35,O=C(NC1CCCCCC1)c1cccnc1Sc1ccc(Cl)cc1
6.18*,-0.11*,CCOc1cc(C(=O)CSc2nnc(CNc3ccc(Cl)cc3)o2)ccc1NC(=O)CC
2.02,-0.26,CCc1cc2c(=O)[nH]c(CC(N)=O)nc2s1
1.66,-1.55,COc1ccc(Cc2noc(CN(C)Cc3ccc(-n4cccn4)cc3)n2)cc1OC

The results go on.
KCNQ2 enhance,KCNQ2 enhance baseline,molecule
1.69,0.11,CN(C)CCNc1oc(/C=C/c2ccccc2)nc1C#N
0.15,0.28,Cc1cc(C)c(S(=O)(=O)c2ccc(Cl)cc2)c(=O)[nH]1
0.26,-0.81,O=C(CCCc1ccccc1)Nc1cccnc1
1.05,1.98,COc1ccc(C(=O)N2CCN(C)C(=O)[C@@H]2C)cc1OC1CCN(C(C)=O)CC1
0.75,1.38,FC(F)(F)c1cccc(Cn2cnc(NC(=S)NCCc3ccccc3)n2)c1
0.07,0.86,Cc1nnn(C23C[C@@H]4C[C@@H](CC(C(=O)N5CCN(c6ccccc6)CC5)(C4)C2)C3)n1
0.47,-0.44,COC(=O)c1cccc(NC(=O)CCCOc2ccccc2)c1
0.81,-0.21,Cc1cc(OC(C)C(=O)NCc2ccccn2)c2c(C)c(C)c(=O)oc2c1 (configuration not stated)
0.21,-0.5,CSC1=NCCN1C(=O)COc1ccc2ccccc2c1
0.68,-0.14,COCCNC(=O)CS(=O)(=O)Cc1nc(-c2ccc(C)cc2)oc1C
0.02,0.58,O=C(NNC(=S)NC(=O)c1cccnc1)c1ccc(F)cc1
1.41,-1.37,O=c1c2ccccc2ncn1-c1ccccc1F
1.93,0.68,CC1=NC(=O)C(N=Nc2cccc(O)c2)N1c1ccccc1 (configuration not stated)
0.54,0.1,COc1ccc(C(=O)Nc2c(F)c(F)c(F)c(F)c2F)c(OC)c1
1.4,-1.85,Cc1ccc2cc(C)c3nnc(SCC(=O)NCc4ccco4)n3c2c1

Additional structures
KCNQ2 enhance,KCNQ2 enhance baseline,molecule
1.02,1.83,COc1ccc(NC(=O)/C(N=Nc2cc(S(=O)(=O)Nc3ccc(OC)cc3)ccc2OC)=C(\C)O)cc1
0.19,-1.41,O=C(Cc1ccc(F)cc1)Nc1cccc(S(=O)(=O)N2CCCC2)c1
1.07,-0.05,Cc1nnc(SCC(=O)N(C(C)C)C(C)C)nc1C
0.46,3.18,COC(=O)c1ccc(OCC(O)CN2C(=O)c3ccccc3C2=O)cc1 (configuration not stated)
0.81,1.29,CCCn1nnnc1SCC(=O)NCc1ccc2c(c1)OCO2
2.05,-3,Cc1ccccc1CN1CCC(n2nccc2NC(=O)c2cccnc2)CC1
0.75,-0.13,COc1ccc(CNC(=O)/C(C)=C\C(=O)O)cc1
0.52,0.24,Cc1cccc(NC(=O)CNC(=O)c2ccc(-n3cncn3)c([N+](=O)[O-])c2)c1C
1.94,0.37,O=C(CS(=O)(=O)c1c[nH]c2ccccc12)NC1CCCCC1
0.4,0,CC(=O)NC1=NN(C(C)=O)C(C)(c2cccs2)S1 (configuration not stated)
0.2,-2.18,O=C(NCc1ccccc1)c1ccc(CS(=O)(=O)Cc2ccccc2F)o1
0.42,0.31,COc1ccc(OC)c(S(=O)(=O)Nc2ccccc2C(=O)O)c1
1.61,-1.64,O=C(CN1C(=O)NC2NC(=O)NC21)N/N=C/c1ccccc1F (configuration not stated)
0.12,0.03,Cc1ccccc1N1CCN(C2CCCN(C(=O)CCC(=O)N(C)C)C2)CC1 (configuration not stated)
0.06,-0.09,O=C1/C(=C\c2ccccc2)SC(=S)N1CCC(=O)N1CCCCC1CCO (configuration not stated)

Additional entries
KCNQ2 enhance,KCNQ2 enhance baseline,molecule
0.11,1.59,N#Cc1nc(-c2ccccc2F)oc1NCCc1ccccc1
0.76,-0.53,CC1(C)Nc2ccccc2N(CC(=O)N2CCCCC2)C1=O
1.78,0.67,CCn1c(=O)c(=O)[nH]c2cc(C(=O)N(C)Cc3ccc(OC)c(F)c3)ccc21
0.22,-1.47,COc1ccc2c(c1)C(C1=C(O)CC(C)(C)CC1=O)C1=C(CC(C)(C)CC1=O)O2 (configuration not stated)
0.75,1.8,CC(=O)O/C(=C\c1cn(C(C)=O)c2ccccc12)C(=O)O
0.15,0,Cc1nn(C)cc1CNC(=O)C1(C)CC1(Cl)Cl (configuration not stated)
0.79,0.12,CC(C)CC1NC(=O)N(CC(=O)N2CCCc3ccccc32)C1=O (configuration not stated)
0.15,-1.04,O=C(O)c1ccc(CSc2nnc(-c3cccnc3)n2-c2ccc(Br)cc2)cc1
0.66,0.04,COC(=O)c1ccc(C(=O)OC)c(=O)[nH]1
33.7*,-1.3*,CCC(C)(C)n1nnnc1C(c1cc2cc(C)ccc2[nH]c1=O)N1CCCc2ccccc21 (configuration not stated)
0.55,0.47,COc1cccc(Cn2nnc(C(=O)Nc3ccc(C)cc3)c2N)c1
0.26,0.01,COC(=O)c1oc2ccc(Br)cc2c1NC(=O)CCCN1C(=O)c2ccccc2C1=O
0.73,-0.6,Cc1ccc(N/C=C2/Sc3ccccc3NC2=O)cc1
0.56,-0.62,c1ccc(COc2nsnc2N2CCOCC2)cc1
1.94,0.08,O=C(c1ccc(OC2CCN(C(=O)C3CC3)CC2)cc1)N(CCO)Cc1ccccc1

Two entries drawn at random from those above, as already listed:
KCNQ2 enhance,KCNQ2 enhance baseline,molecule
0.76,-0.53,CC1(C)Nc2ccccc2N(CC(=O)N2CCCCC2)C1=O
0.11,1.59,N#Cc1nc(-c2ccccc2F)oc1NCCc1ccccc1

The listing picks up, repeating the 5 entries before the break.
KCNQ2 enhance,KCNQ2 enhance baseline,molecule
0.55,0.47,COc1cccc(Cn2nnc(C(=O)Nc3ccc(C)cc3)c2N)c1
0.26,0.01,COC(=O)c1oc2ccc(Br)cc2c1NC(=O)CCCN1C(=O)c2ccccc2C1=O
0.73,-0.6,Cc1ccc(N/C=C2/Sc3ccccc3NC2=O)cc1
0.56,-0.62,c1ccc(COc2nsnc2N2CCOCC2)cc1
1.94,0.08,O=C(c1ccc(OC2CCN(C(=O)C3CC3)CC2)cc1)N(CCO)Cc1ccccc1
1.55,0.63,CC(=O)C(Cc1ccccc1)NC(=O)CN1CCN(Cc2ccccc2)CC1 (configuration not stated)
0.92,0.51,COc1ccc(CNc2ccc(C(=O)O)cc2)cc1
2.7,-0.36,CCOC(=O)C1=C(COC(=O)c2cccc(N(C)C)c2)NC(=O)NC1C (configuration not stated)
0.42,2.07,CCCc1nn2c(=O)cc(CSCC(=O)Nc3nnc(CC)s3)nc2s1
0.09,-1.43,COCc1cc(C)nc2sc(C(=O)Nc3ccc(OC)cc3)c(N)c12
0.67,0.19,COc1ccc(S(=O)(=O)NN=C2CCCC2)cc1
0.76,-0.76,CCn1c(COc2ccc(Cl)cc2)nnc1SCc1nc2ccccc2[nH]1
0.5,0.42,O=c1c2cc3c(cc2[nH]c(=S)n1Cc1ccco1)OCO3
0.21,0.01,CN1CCCN(Cc2nc(-c3ccc(Cl)cc3)no2)CC1
0.25,-0.84,Cc1ccn2c(C(=O)N/N=C\c3ccccc3[N+](=O)[O-])c(C)nc2c1
0.99,0.32,COc1ccccc1-n1cnc2cc(NCc3ccco3)ccc21
0.05,0.75,COc1nccnc1NS(=O)(=O)c1ccc(NC(=S)NC(=O)c2ccc(F)c(F)c2)cc1
1.83,0.38,Cc1nc2sc(C)c(C)c2c(=O)[nH]1
0.16,-0.5,CN(C(=O)COC(=O)c1ccc(Cl)nc1)C1CCS(=O)(=O)C1 (configuration not stated)
0.04,-0.09,O=C(CCCC(=O)N/N=C\c1ccccn1)N/N=C\c1ccccn1

Later entries
KCNQ2 enhance,KCNQ2 enhance baseline,molecule
0.79,-1.7,Cc1cc2c(cc1S(=O)(=O)N(C)c1ccccc1)n(C)c(=O)n2C
0.42,1.08,Cc1cc(C)n(CCNC(=O)C2CCC(=O)N(CC3CCCCC3)C2)n1 (configuration not stated)
0.26,-0.84,COc1ccc(Cl)cc1C(=O)NC(=S)Nc1nc(C)cc(C)n1
0.31,0.08,Cc1ccc(CN(C)C(=O)c2ccc(NS(=O)(=O)c3ccc4[nH]c(=O)[nH]c4c3)cc2)cc1
0.91,-0.83,CCCS(=O)(=O)c1c(S(=O)(=O)CCC)c2cnccn2c1C(=O)c1ccc(F)cc1
3.33,0.33,Cc1nc(N)nc(OCC(F)(F)C(F)F)c1Br
0.46,-0.72,C=CCOn1c(=O)c(-c2ccc(F)cc2)[n+]([O-])c2ccccc21
0.03,-0.84,CCOc1ccc(C(=O)c2ccccc2C(=O)O)cc1OCC

Some of the compounds tested (hit frequency here may not be typical).
